NPC1 promoter act = NPC1 promoter activation; Huh7 NPC1 promoter luciferase reporter, 24 h; hit rate 2.4% among 320,000; AID 485313; Potency, µM (doses to about 9.22 µM), for the others: top-dose activation, most hits filed as activators;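 also: potency is read from the fitted curve at half-maximal effect; % of control where 0% means no effect; nearly all actives have a fitted effect of over 60% in size; reporter is driven by a mutant NPC1 promoter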
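Huh7 cells stably carrying NPC1 promoter–luciferase, plated in Opti-MEM with 10% FBS for 2 h, were exposed to compound in DMSO for 24 h at 37 °C; luciferase reagent was added for 10 min and luminescence read.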
PKM2 act = increases activity of human pyruvate kinase M2; P14618; purified PKM2, Kinase-Glo ATP luminescence, activation; response scale: 0% is enzyme alone, no compound; Potency, µM (top dose mostly 57.5 µM), without a hit: at the highest dose activation, usual class: activators; hit rate 0.34% among 260,000; also: potency is read from the fitted curve at half-maximal effect; % is scaled to controls: 0 for no effect and ±100 for the full control effect; nearly all actives have a fitted effect of over 55% in size
Target sequence (P14618 whole entry, looked up): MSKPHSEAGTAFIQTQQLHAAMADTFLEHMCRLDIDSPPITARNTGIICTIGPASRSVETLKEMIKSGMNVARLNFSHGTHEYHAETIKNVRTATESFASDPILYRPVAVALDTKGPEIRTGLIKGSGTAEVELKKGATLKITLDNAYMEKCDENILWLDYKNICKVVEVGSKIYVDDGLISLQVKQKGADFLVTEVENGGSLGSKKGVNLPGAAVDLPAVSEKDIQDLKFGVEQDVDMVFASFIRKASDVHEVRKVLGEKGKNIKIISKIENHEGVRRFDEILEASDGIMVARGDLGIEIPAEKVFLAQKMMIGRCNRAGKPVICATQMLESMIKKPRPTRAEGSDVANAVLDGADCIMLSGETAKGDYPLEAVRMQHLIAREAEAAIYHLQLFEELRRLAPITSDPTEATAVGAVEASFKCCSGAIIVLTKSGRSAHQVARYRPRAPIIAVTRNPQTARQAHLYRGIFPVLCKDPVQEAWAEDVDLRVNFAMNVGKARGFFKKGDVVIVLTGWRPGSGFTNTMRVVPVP
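Purified hPK-M2 (>95%) run at intermediate activity with 0.1 mM ADP and 0.5 mM PEP in 50 mM imidazole pH 7.2, KCl, MgCl2; 1 h room temperature. ATP formed read by Kinase-Glo luminescence; normalized to uninhibited and no-enzyme controls.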
Giardia killer = kills Giardia lamblia; Giardia lamblia trophozoite viability; activity change, % at 7.66 µM, hits read low; hit rate 0.15% among 340,000; in the data active = activity change below about -80%; inconclusive = between about -30% and that limit;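 also: parasites exposed to compound for two days anaerobically before the ATP read; % is scaled to controls: 0 for no effect and ±100 for the full control effect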
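ATP-content bioluminescence gauges trophozoite survival. Cells (100/well) receive compound and incubate anaerobically for 48 hrs at 37 deg C; detection reagent follows for 15-30 min at room temperature.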
VP16 counter = inhibits Gal4-VP16 luciferase reporter, ROR gamma counter-screen. Drosophila S2 Gal4-VP16 UAS-luciferase, luminescence, 20 h. Potency, µM (highest dose often 53.6 µM), without a hit: at the highest dose activity, negative = inhibition, usual class: inhibitors. hit rate 3.5% among 310,000. AID 2546;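 also: Gal4-VP16 expression switched on by copper sulfate through the metallothionein promoter; potency is read from the fitted curve at half-maximal effect; % is scaled to controls: 0 for no effect and ±100 for the full control effect; nearly all actives have a fitted effect of over 50% in size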
ELG1 genotox = inducers of genotoxicity in HEK293T ELG1-luciferase cells; HEK293T ELG1-luciferase reporter, luminescence, 16 h; Potency, µM (doses to about 46 µM), for inactives: top-dose activity change, positive = activation, hits mostly activators; hit rate 1.3% among 330,000; also: potency is read from the fitted curve at half-maximal effect; % of control where 0% means no effect; nearly all actives have a fitted effect of over 60% in size
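Screening used a luciferase reporter fused to human ELG1 in HEK293T cells. Luminescence was read on a CCD plate imager after 16 hr exposure and 30 min ONE-Glo incubation.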
Menin-MLL TR inh = menin-MLL binding inhibition, Texas Red mutant peptide; Menin + Texas Red MLL mutant peptide, fluorescence polarization; Potency, µM (series often up to 61.6 µM), inactives show top-dose FP activity change, negative = inhibition, most hits filed as inhibitors; O00255; hit rate 0.23% among 270,000; active = well fitted inhibition curve with a large enough effect in the polarisation, with a control signal flat, not every such curve was filed as active; inconclusive = small, poorly fitted or top-dose-only effect, or effect the other way, or a change in a side signal; inactive = no such curve, though single readings can be large or run the other way; the % refers to the polarisation; also: potency is read from the fitted curve at half-maximal effect; % of control where 0% means no effect; many of its hits are not listed in these tables
An asterisk follows results filed as active; ? = inconclusive; . = not tested or not shown; [ ] = another dose, or the depositor's remark. Unless noted, calls follow the shape of the dose curve; as a rule, active = well fitted curve in the direction sought with a large enough effect; inconclusive = small, poorly fitted or top-dose-only effect, or another doubt; inactive = no such curve, though single readings can be large; an effect the other way counts as inactive or inconclusive.

Short forms – A = NPC1 promoter act; B = PKM2 act; C = Giardia killer; D = VP16 counter; E = ELG1 genotox; F = Menin-MLL TR inh
1	O=C(Oc1ccc2c(c1)CCC2)N1CCOCC1
  A = 26.2%; B = -0.7%; C = 3.2; D = 4.0%; E = ?; F = 4.2%

2	CC(C)C(=O)Nc1ccc([N+](=O)[O-])c(C(F)(F)F)c1
  A = -6.7%[46.1 µM]; B = -5.3%; C = 3.3; D = ?; E = -6.3%; F = 9.7%

3	COc1ccc2nc(NC3=NCCN3)sc2c1
  A = 2.82µM*; B = -2.2%; C = -11.7; D = -8.6%; E = 18.4µM*; F = 0.5%

4	CCOC(=O)c1cncn1[C@@H](C)c1ccccc1
  A = -1.0%; B = .; C = -9.5; D = 10.6%[17 µM]; E = -3.4%; F = -14.1%[24.8 µM]

5	CCCOP(=O)(O)c1c([N+](=O)[O-])cc(C(F)(F)F)cc1[N+](=O)[O-] (tested in a mixture with another compound)
  A = 1.1%; B = -0.4%; C = -15.4; D = 16.5%; E = 9.8%; F = -6.2%

6	C/C(=N\OC(=O)NC(C)C)c1sc(-c2ccccc2)nc1C
  A = 3.98µM*; B = -0.6%; C = 29.4; D = 3.2%; E = 6.1%; F = -17.4%

7	Cc1cccc(C)c1NC1=NCCCS1
  A = -3.1%[46.1 µM]; B = 3.4%; C = -0.5; D = -2.0%; E = 0.6%; F = 10.8%

8	CC(C)C[C@H]1C(=O)N2CCC[C@@H]2[C@]2(O)O[C@](NC(=O)[C@@H]3C=C4c5cccc6[nH]c(Br)c(c56)C[C@H]4N(C)C3)(C(C)C)C(=O)N12
  A = .; B = .; C = .; D = -23.2%; E = .; F = 8.1%[24.8 µM]

Entries 2 to 8, reprinted for reference:
Short forms – A = NPC1 promoter act; B = PKM2 act; C = Giardia killer; D = VP16 counter; E = ELG1 genotox; F = Menin-MLL TR inh
2	CC(C)C(=O)Nc1ccc([N+](=O)[O-])c(C(F)(F)F)c1
  A = -6.7%[46.1 µM]; B = -5.3%; C = 3.3; D = ?; E = -6.3%; F = 9.7%

3	COc1ccc2nc(NC3=NCCN3)sc2c1
  A = 2.82µM*; B = -2.2%; C = -11.7; D = -8.6%; E = 18.4µM*; F = 0.5%

4	CCOC(=O)c1cncn1[C@@H](C)c1ccccc1
  A = -1.0%; B = .; C = -9.5; D = 10.6%[17 µM]; E = -3.4%; F = -14.1%[24.8 µM]

5	CCCOP(=O)(O)c1c([N+](=O)[O-])cc(C(F)(F)F)cc1[N+](=O)[O-] (tested in a mixture with another compound)
  A = 1.1%; B = -0.4%; C = -15.4; D = 16.5%; E = 9.8%; F = -6.2%

6	C/C(=N\OC(=O)NC(C)C)c1sc(-c2ccccc2)nc1C
  A = 3.98µM*; B = -0.6%; C = 29.4; D = 3.2%; E = 6.1%; F = -17.4%

7	Cc1cccc(C)c1NC1=NCCCS1
  A = -3.1%[46.1 µM]; B = 3.4%; C = -0.5; D = -2.0%; E = 0.6%; F = 10.8%

8	CC(C)C[C@H]1C(=O)N2CCC[C@@H]2[C@]2(O)O[C@](NC(=O)[C@@H]3C=C4c5cccc6[nH]c(Br)c(c56)C[C@H]4N(C)C3)(C(C)C)C(=O)N12
  A = .; B = .; C = .; D = -23.2%; E = .; F = 8.1%[24.8 µM]

Not all compounds are listed (hit frequency here may not be typical).
